# Screens as filed in PubChem BioAssay.
# GIV Gai3 FP: blocks GIV peptide binding to rat Galpha-i3. 210,000 tested, 0.42% active. P08753. percent of control (FP), % (no concentration beside the values). AID 1224905. Galpha-i3/FITC-GIV peptide fluorescence polarization, 90 min; stronger effect = lower value; scaled: aluminum fluoride 0%, vehicle 100%;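 active = replicate mean at 85% of control or lower, very high polarization wells dropped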;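 also: wells of about 15 µL received 100 nL stock; the first replicate is given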
# Target sequence (P08753 whole entry, looked up): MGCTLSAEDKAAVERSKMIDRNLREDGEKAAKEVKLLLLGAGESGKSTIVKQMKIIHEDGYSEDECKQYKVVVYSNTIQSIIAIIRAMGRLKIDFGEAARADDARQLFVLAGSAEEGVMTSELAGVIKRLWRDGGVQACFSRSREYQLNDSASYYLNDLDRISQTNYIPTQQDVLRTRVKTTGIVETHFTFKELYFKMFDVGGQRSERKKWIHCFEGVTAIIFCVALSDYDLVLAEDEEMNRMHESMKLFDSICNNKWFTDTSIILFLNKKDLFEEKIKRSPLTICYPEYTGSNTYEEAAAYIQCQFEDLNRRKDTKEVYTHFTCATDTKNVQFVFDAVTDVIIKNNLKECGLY
# * marks the source's active call; other numbers are inactive results. Not all compounds are listed; rates above refer to the full screens.
SMILES,GIV Gai3 FP
O=C(Nc1ccc(Oc2ccc(Br)c3ccccc23)c(Cl)c1)c1cc(Br)cc(Br)c1O,109
O=C1/C(=C/c2ccc([N+](=O)[O-])cc2)C=C(c2ccccc2)N1c1cccc(Cl)c1Cl,109
CCN1C(=O)C2(C(C#N)=C(N)Oc3n[nH]c(-c4ccc(F)cc4)c32)c2ccccc21 (configuration not stated),107
COc1ccc(N2CCN(S(=O)(=O)c3ccc(F)c(C(=O)Nc4cccc(Cl)c4C)c3)CC2)cc1,110
Cc1nc(N2CCN(c3ccccn3)CC2)c2c(C)c(C(=O)NC(C)C)sc2n1,96
CCOC(=O)c1nc(Nc2ccc(Cl)cc2)c2c(C)c(C)n(-c3ccccc3)c2n1,102
CCc1nc2nc(C)cc(N3CCN(c4ccc(C)cc4C)CC3)n2n1,109
Cc1nn(-c2ccc3nncn3n2)c(C)c1CCC(=O)NCCC(C)C,97
COc1ccc(/C=C(\C#N)C(=O)Nc2c(C)n(C)n(-c3ccccc3)c2=O)cc1,110
N#CCSc1nc2c(sc(=S)n2-c2ccccc2)c(=O)n1Cc1ccco1,105
Cc1nc(N2CCOCC2)nc(Nc2cccc(F)c2)c1[N+](=O)[O-],103
COc1ccc2nc(SCC(=O)Nc3ccc(C)c(Cl)c3)[nH]c2c1,118
CCS(=O)(=O)N1CCCC1c1cc(C(C)C)on1 (configuration not stated),100
Cc1cccc(-c2nnc(-c3nc(NC(C)c4ccccc4)c4ccccc4n3)o2)c1 (configuration not stated),106
CC(NC(=O)c1ccccc1)c1nc(-c2ccc3c(c2)nnn3C2CCCC2)no1 (configuration not stated),103
COCCNC(=O)c1ccc(N2CC3CC(C2)c2cccc(=O)n2C3)c(NC(=O)c2cc(OC)ccc2Br)c1 (configuration not stated),108
O=C(CSc1nc(=O)n(Cc2ccncc2)c2c1CCC2)Nc1ccc2c(c1)OCO2,99
CCOC(=O)C(Cc1ccc(O)cc1)NS(=O)(=O)c1ccc2c(c1)C(=O)c1ccccc1C2=O (configuration not stated),101
CCCOc1ccc(CNC(=O)C2CCN(c3ncnc4c3oc3ccccc34)CC2)cc1,104
CC(=O)n1c2c(c3ccccc31)OC(N)=C(C#N)C2c1ccc(Cl)c([N+](=O)[O-])c1 (configuration not stated),117
COc1ccc(C(=O)N2N=C(C3CCCCC3)CC2(O)C(F)(F)F)cc1 (configuration not stated),101
NS(=O)(=O)c1ccc2nc(NC(=O)c3cccc(N4C(=O)CCC4=O)c3)sc2c1,103
O=C1NC2(Nc3ccccc31)C(=O)N(Cc1cccc3ccccc13)c1ccccc12 (configuration not stated),122
CC(=O)N1CCCc2cc(S(=O)(=O)N3CCC(C(=O)NCC4CCCO4)CC3)ccc21 (configuration not stated),102
Cc1cccc(NC(=O)C(Cc2c[nH]c3ccccc23)NC(=O)OC(C)(C)C)c1C (configuration not stated),116
COC(=O)Cc1nc(Nc2ccc(OC)cc2OC)c2c(C)c(C)sc2n1,99
O=C(c1ccc(Cl)cc1)N1CCc2c([nH]c3ccccc23)C1,107
CCOC(=O)N1CCN(S(=O)(=O)c2ccc(F)c(C(=O)Nc3ccc(Br)cc3)c2)CC1,106
O=S(=O)(c1cccc(F)c1)N1CCn2cccc2C1c1ccccc1F (configuration not stated),106
CCC1CCCCN1S(=O)(=O)c1ccc2c(c1)-c1oncc1CO2 (configuration not stated),99
COc1ccc(N2CC(O)(c3ccc(OC)c(OC)c3)[N+]3=C2SCCC3)cc1 (configuration not stated),103
CCOC(=O)C1=C(C)NC2=C(C(=O)C(C(=O)OCC)C(c3ccccc3OC)C2)C1c1ccc2c(c1)OCO2 (configuration not stated),102
COc1ccc(/C=C(\C#N)c2nnc3n2CCCCC3)cc1,113
CCOC(=O)CSc1n[nH]c(-c2ccncc2)n1,100
Cc1ccc(C)c(S(=O)(=O)N2CCCC2c2nc(-c3ccc(Cl)cc3)no2)c1 (configuration not stated),101
O=C(CSc1nc(Nc2ccc(F)cc2)c2ccccc2n1)NCC1CCCO1 (configuration not stated),104
CC(C)Cn1c(=O)c(N2CCC(NC(=O)Nc3ccc4c(c3)OCO4)CC2)nc2ccccc21,104
CC1CCN(S(=O)(=O)c2cccn(Cc3cc(F)cc(F)c3)c2=O)CC1,104
CC(C)C(=O)N1CCc2c(c(C(=O)N3CCC(C(=O)N4CCOCC4)CC3)nn2C)C1,105
CCOC(=O)N1CCC(NC(=O)c2cc3nc(-c4ccc5c(c4)OCO5)cc(C(F)(F)F)n3n2)CC1,110
O=C(c1ccccc1)N1CCN(Cc2cc(=O)n3nc(-c4ccc(F)cc4)sc3n2)CC1,104
CCCN(C)S(=O)(=O)c1c(C)[nH]c(-c2nnc(C3CCC3)o2)c1C,105
COc1ccc2nc(NC(=O)CNC(=O)Cn3cnc4sc(C)c(C)c4c3=O)sc2c1,112
COc1ccc(Br)cc1C1CC(=O)Nc2c1c(C)nn2-c1nc2ccccc2[nH]1 (configuration not stated),97
O=C1C2C3c4ccccc4C(C=Nc4cccc(O)c4)(c4ccccc43)C2C(=O)N1c1ccccc1 (configuration not stated),102
COc1ccc(-c2cc(N3CCN(C(=O)COc4ccc(Cl)cc4)CC3)ncn2)cc1,110
CC(=O)Nc1ccc(-c2nc3ccc(NC(C)=O)cc3o2)cc1,100
COc1ccc(Cl)cc1-c1nc(-c2ccc(NC(=O)c3cccs3)cc2)no1,93
CCCN1CCN(S(=O)(=O)c2cc(-c3cnn4c(C)cc(C)nc34)ccc2C)CC1,98
Cc1ccc(OCc2cc(=O)n3oc(C)cc3n2)c(NC(=O)C(C)(C)C)c1,103
COc1ccc(N2C(=O)C3C4c5ccccc5C(C=Nc5cc(C)ccc5C)(c5ccccc54)C3C2=O)cc1 (configuration not stated),109
COc1cc(C2CC(=O)Nc3c2ccc2ccccc32)ccc1OC(=O)c1ccc(Cl)cc1 (configuration not stated),103
O=C(O)c1ccc(C(=O)O)c2c(-c3ccc4c(=O)n5c6ccccc6nc5c5ccc(C(=O)O)c3c45)ccc(C(=O)O)c12,109
CCOC(=O)c1c(NC(=O)c2ccccc2)sc2c1CCN(C(C)C)C2,123
Cc1nc(CCNC(=O)[C@H]2CCCN2C(=O)c2cccc(Cl)c2)cs1,98
O=C(CSc1nc2ccccc2o1)N1CCc2ccccc2C1,121
CN(C)Cc1cc(C(C)(C)C)c(O)c(C(C)(C)C)c1,108
CCCCNC(=O)CSc1nc2sc(C(=O)OCC)c(C)c2c(=O)n1Cc1ccco1,113
CC(C)NC(=O)N1CCC(c2nc(C(C)C)cs2)CC1,99
CC1SC2(C(=O)Nc3ccccc32)N(c2ccc(Cl)cc2)C1=O (configuration not stated),98
# More results
SMILES,GIV Gai3 FP
Brc1ccc2nc(-c3ccccc3)c(-c3ccccc3)nc2c1,111
CCOC(=O)CC(=O)CSc1nc(-c2cccs2)cc(-c2cccs2)c1C#N,115
CC(O)C12c3ccccc3C(c3ccccc31)C1C(=O)N(c3ccc(F)cc3)C(=O)C12 (configuration not stated),116
COc1ccc(C(=O)Nc2ccc3c(c2)N(C)C(=O)c2ccccc2O3)c(OC)c1,98
COc1ccccc1NC(=O)Cn1cnc2sc(C(=O)N3CCN(Cc4ccc5c(c4)OCO5)CC3)c(C)c2c1=O,109
Cc1cc(C)c2c(c1)-c1c(ssc1=S)C(C)(C)N2C(=O)CN1CCCCC1,113
COc1ccc(CCNC(=O)CSc2nc3ccccc3c(=O)n2CC2COc3ccccc3O2)cc1OC (configuration not stated),109
Cn1c(=O)c(=O)n(C)c2cc(S(=O)(=O)C3CCCCC3)c(NC(=O)c3ccccc3)cc21,100
Cc1ccc(-c2[nH]ncc2CN2CCCC2c2cc(C(C)C)on2)cc1C (configuration not stated),117
Brc1ccc(-c2csc(Cc3nc(-c4ccccc4)no3)n2)cc1,113
O=C(Nc1cccc(C(=O)N2CCCC(C(=O)NCC3CCCO3)C2)c1)c1ccccc1F (configuration not stated),110
O=C(Cn1nc2c3sc(N4CCCCC4)nc3ncn2c1=O)Nc1cccc(Br)c1,105
CSc1ccc(C2Oc3ccccc3C3=C2C(c2cccs2)n2ncnc2N3)cc1 (configuration not stated),102
CCOC(=O)C1=C(C)OC(N)=C(C#N)C1c1ccccc1C(F)(F)F (configuration not stated),109
CCCCOc1ccc(C(=O)OCCN2C(=O)C3C4c5ccccc5C(c5ccccc54)C3C2=O)cc1 (configuration not stated),103
O=C(NCCCN1CCCCC1)C1CCN(c2cncnc2N2CCOCC2)CC1,104
COc1ccc(N2CCN(C(=O)c3cccnc3SCc3cccc(Br)c3)CC2)cc1,118
Cc1ccc(S(=O)(=O)Nc2cccc(C(=O)N3CCC(C(=O)NCCC(C)C)CC3)c2)cc1,108
COC(=O)c1c(C)oc2ccc(N(C(=O)c3ccc([N+](=O)[O-])cc3)S(=O)(=O)c3ccc(C)cc3)cc12,103
O=C(Nc1ccccc1Cl)c1cc(S(=O)(=O)N2CCN(c3ccccc3Cl)CC2)ccc1F,113
COc1ccc(C2=NN(c3ccccc3)C(c3ccc(C)o3)C2)c(OC)c1 (configuration not stated),108
COc1ccccc1NC(=O)c1c(NC(=O)c2cccc(Br)c2)sc2c1CCCCC2,108
Nc1nc(SCCc2ccccc2)ns1,101
COc1ccc(N2CCN(C(=O)c3cc(S(=O)(=O)N4CCCC4)ccc3Cl)CC2)cc1,99
O=[N+]([O-])c1ccc(-c2nc(Nc3ccc(O)cc3)c3ccccc3n2)cc1,101
CCCS(=O)(=O)c1c(S(=O)(=O)CCC)c2c(C)cc(C)cn2c1C(=O)c1cc(C)ccc1C,120
Cc1ccc(CNC2=NCCNC23CCN(S(=O)(=O)c2ccccc2C)CC3)cc1,101
CC(C)CNC(=O)N1CCCC1c1cc(C(C)C)on1 (configuration not stated),100
O=C(NCCN1CCN(C(=O)c2ccc(Cl)cc2)CC1)c1ccc(Cl)cc1,104
Cc1ccccc1Nc1coc2ccc3c(C)cc(=O)oc3c12,121
COc1ccc(NC(=O)C2CCCN(c3nccnc3Sc3ccc(C)cc3)C2)cc1OC (configuration not stated),108
CC(=O)CC1C(C#N)=C(N(C)C)N(c2ccc([N+](=O)[O-])cc2)c2c1n(C)c1ccccc21 (configuration not stated),105
CCNc1nc(NC(C)C)nc(Oc2ccc(OCCOc3ccccc3)nn2)n1,113
COc1ccc2c(c1)-c1cc(Cl)ccc1S(=O)(=O)N2S(=O)(=O)c1ccc2ccccc2c1,109
COc1ccccc1-c1noc(CCn2nc(-c3ccc4c(c3)OCO4)ccc2=O)n1,106
Cc1noc(C)c1CCN(C)c1ccc(NC(=O)c2ccc(Br)cc2)cc1C(=O)O,104
COC(=O)C1=CN(Cc2ccc(OC)c(OC)c2)C=C(C(=O)OC)C1c1ccc(Br)cc1,110
O=C(NCc1ccc(Cl)cc1)c1ccc(-c2cnc(NC3CCCCC3)nc2)cc1,102
Cn1c(N2CCC(C(=O)Nc3ccccc3F)CC2)cc(=O)n(C)c1=O,101
Cc1csc(-c2cc(S(=O)(=O)NCCCN3CCOCC3)cn2CC(=O)N2CCCCC2)n1,106
CCOc1ccc(NC(=O)CSc2nc3ccccc3n2S(=O)(=O)c2ccc(NC(C)=O)c(Cl)c2)cc1,109
CCOC(=O)c1[nH]c(C)c(CN(Cc2ccc(C)cc2)S(=O)(=O)c2ccccc2Cl)c1C,99
Cn1cnnc1C1CCCN(Cc2ccc(F)cc2Cl)C1 (configuration not stated),152
CCC(C)(C)C(=O)NC1CCN(C2=NS(=O)(=O)C(c3ccc(F)cc3)=C2C)CC1,108
Cc1ccc(-c2ccc(-n3nc(C)c(S(=O)(=O)N4CCCC(C)C4)c3C)nn2)cc1 (configuration not stated),107
CCCc1[nH]n(-c2ccc(F)cc2)c(=O)c1C=NCCN1CCN(C(=O)c2ccccc2)CC1,107
CCN1/C(=C\C=C\c2n(CC)c3cc(Cl)c(Cl)cc3[n+]2CCCS(=O)(=O)[O-])N(CCCS(=O)(=O)O)c2cc(Cl)c(Cl)cc21,79*
COc1cc(OC)cc(N2C(C)=NS(=O)(=O)c3cccnc32)c1,102
COc1ccc(NC(=O)c2cccc(-c3cc(Oc4ccccc4OC)ncn3)c2)cc1OC,108
Cc1ccc2nc(N3CCC(C(=O)NCCN4CCN(c5cccc(C)c5C)CC4)CC3)[nH]c2c1,99
NC(=O)CSc1nc2c(cnn2-c2ccc(Cl)cc2)c(=O)[nH]1,101
COc1ccc(N2CCN(C(=O)c3ccc4c(=O)n(Cc5ccc6c(c5)OCO6)c(=S)[nH]c4c3)CC2)cc1,124

# 16 of these compounds, set out differently:
SMILES	GIV Gai3 FP
COc1ccc2c(c1)-c1cc(Cl)ccc1S(=O)(=O)N2S(=O)(=O)c1ccc2ccccc2c1	109
COc1ccccc1-c1noc(CCn2nc(-c3ccc4c(c3)OCO4)ccc2=O)n1	106
Cc1noc(C)c1CCN(C)c1ccc(NC(=O)c2ccc(Br)cc2)cc1C(=O)O	104
COC(=O)C1=CN(Cc2ccc(OC)c(OC)c2)C=C(C(=O)OC)C1c1ccc(Br)cc1	110
O=C(NCc1ccc(Cl)cc1)c1ccc(-c2cnc(NC3CCCCC3)nc2)cc1	102
Cn1c(N2CCC(C(=O)Nc3ccccc3F)CC2)cc(=O)n(C)c1=O	101
Cc1csc(-c2cc(S(=O)(=O)NCCCN3CCOCC3)cn2CC(=O)N2CCCCC2)n1	106
CCOc1ccc(NC(=O)CSc2nc3ccccc3n2S(=O)(=O)c2ccc(NC(C)=O)c(Cl)c2)cc1	109
CCOC(=O)c1[nH]c(C)c(CN(Cc2ccc(C)cc2)S(=O)(=O)c2ccccc2Cl)c1C	99
Cn1cnnc1C1CCCN(Cc2ccc(F)cc2Cl)C1 (configuration not stated)	152
CCC(C)(C)C(=O)NC1CCN(C2=NS(=O)(=O)C(c3ccc(F)cc3)=C2C)CC1	108
Cc1ccc(-c2ccc(-n3nc(C)c(S(=O)(=O)N4CCCC(C)C4)c3C)nn2)cc1 (configuration not stated)	107
CCCc1[nH]n(-c2ccc(F)cc2)c(=O)c1C=NCCN1CCN(C(=O)c2ccccc2)CC1	107
CCN1/C(=C\C=C\c2n(CC)c3cc(Cl)c(Cl)cc3[n+]2CCCS(=O)(=O)[O-])N(CCCS(=O)(=O)O)c2cc(Cl)c(Cl)cc21	79*
COc1cc(OC)cc(N2C(C)=NS(=O)(=O)c3cccnc32)c1	102
COc1ccc(NC(=O)c2cccc(-c3cc(Oc4ccccc4OC)ncn3)c2)cc1OC	108
